MT1-MMP promoter = inhibitors of MT1-MMP promoter transcription, cell-based, luciferase reporter, luminescence (AID 618); MT1-MMP promoter luciferase reporter cells, luminescence; hit rate 0.62% among 87,000; calls from a first round at 10 µM; hits with a dose series show EC50 in µM;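 active means over half of the reporter light lost at 10 µM or EC50 under 50 µM; inactive means the rest and hits that failed the dose series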;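 further: actives suppress MT1-MMP promoter-driven transcription so potencies describe inhibitors; HT1080 fibrosarcoma cells; overnight exposure; toxic or luciferase-blocking compounds were not removed from the actives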
WNV NS2B-NS3 inh = inhibitors of WNV NS2B-NS3 protease, primary screen, biochemical, fluorogenic substrate; fluorogenic substrate Ex360/Em465; stronger effect = lower value; z-score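 (tested at a level between 10 and 100 µM)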; hit rate 0.18% among 65,000; AID 577, 2007;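 active means z-score at -3 or under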;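 further: score is relative to mean and spread of the compound wells of a plate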
Target sequence (P06935 1371-1501 limits assumed): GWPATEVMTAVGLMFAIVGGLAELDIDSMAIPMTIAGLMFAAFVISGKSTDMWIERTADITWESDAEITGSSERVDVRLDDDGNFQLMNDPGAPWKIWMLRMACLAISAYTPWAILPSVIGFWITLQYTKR
Target sequence (P06935 1502-1679 limits assumed): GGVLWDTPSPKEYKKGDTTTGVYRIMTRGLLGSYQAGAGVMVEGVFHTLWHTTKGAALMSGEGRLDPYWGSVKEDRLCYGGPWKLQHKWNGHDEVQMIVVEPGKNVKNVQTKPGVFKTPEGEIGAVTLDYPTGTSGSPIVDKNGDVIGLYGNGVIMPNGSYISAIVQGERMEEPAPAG
Hsc70 = Hsc70 inhibitors, probe displacement, primary screen, biochemical, fluorescence polarization (AID 568). Heat shock cognate 71 kDa protein (Homo sapiens). Hsc70 fluorescence polarization, probe displacement; higher % means a stronger effect; strong numbers were not always called active. one-dose displacement, % at 20 µM; IC50 in µM for titrated hits. 83,000 tested, under 10 active;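 active means displacement above 50% without optical interference and an IC50 on retest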;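 further: ATPase domain with a fluorescein-tagged ATP probe; 0% = vehicle and 100% = excess ADP; read after one hour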
The depositor's hits bear a star; i = inactive; · = not tested or not shown; + = active, no number. This is a random part of the collection; about 0.8% have a hit in one of these screens.

SMILES	MT1-MMP promoter	WNV NS2B-NS3 inh	Hsc70
CN(C)S(=O)(=O)c1ccc(C(=O)N(c2ccccn2)c2ccccn2)cc1	i	·	4.3%
Cc1cc2nnc(SCC(=O)N3C(C)CCCC3C)n2c(N)n1 (stereo not given)	i	-1.81	-6.9%
CCOc1ccc(=O)n(-c2ccccc2)n1	i	·	4.6%
O=C(COc1ccc(Cl)cc1)OCC(=O)N1CCCC1	i	-0.07	-4.0%
CCCn1nc(Oc2nc(NCC)nc(NC(C)C)n2)ccc1=O	i	·	6.5%
COc1ccc(C(=O)Oc2c(CN3CCOCC3)cc(Cl)c3cccnc23)cc1	i	0.24	-0.4%
COc1ccc(S(=O)(=O)N(C)CC(=O)Nc2ccc3c(c2)OCCO3)cc1OC	i	1.04	-1.8%
Cc1ccc(O)c(-c2cc(C(F)(F)C(F)F)[nH]n2)c1	i	0.35	-4.6%
CCc1nc(N2CCN(C(=O)c3ccco3)CC2)c2c3c(sc2n1)CCCC3	i	·	0.7%
Cc1ccc(-n2ncc3c(=O)[nH]c(SC(C)C)nc32)cc1	i	0.38	-2.2%
CCCCN(CCCC)S(=O)(=O)c1ccc(C(=O)Nc2nnc(CSC)o2)cc1	i	1.2	0.1%
COC(=O)C1(Cc2ccccc2)NC(c2ccc(F)cc2)C2C(=O)N(C)C(=O)C21 (stereo not given)	i	·	4.2%
Cc1cccc2nc(C(F)(F)F)nc(=O)n12	i	-1	-0.2%
CN1CCc2c(sc3c2c(=O)n(-c2ccc(Cl)cc2)c2nncn32)C1	i	-0.68	-1.5%
COc1ccc2nc(NC(=O)CSc3nc4cccnc4n3C)sc2c1	i	-6.36*	-0.7%
CCOC(=O)NC(C(F)(F)F)(C(F)(F)F)P(=O)(c1ccccc1)c1ccccc1	i	-0.19	-2.2%
CCNC(=O)CCS(=O)(=O)c1ccc2ccccc2c1	i	·	-0.2%
CCCc1nc2ccccc2c(C(=O)OCC(=O)NCc2ccco2)c1CC	i	·	3.5%
CCOC(=O)N1CCC(NS(=O)(=O)c2cc3c(cc2Cl)NC(=O)CO3)CC1	i	1.25	-9.1%
CCC(=O)c1ccc(OCC(=O)Nc2nn3cnnc3s2)cc1	i	-0.79	8.8%
COC(=O)c1ccc(NC(=O)CN2C(=O)CCC2=O)cc1	i	1.32	3.2%
Cc1c(NC(=O)Nc2ccc(Cl)c(Cl)c2)c(=O)n(-c2ccccc2)n1C	i	-0.2	1.1%
CCc1ccc(C2CC(c3ccc(Cl)cc3)=NNC2=O)cc1 (stereo not given)	i	·	6.3%
COC(=O)CS(=O)(=O)c1cc(Br)cc2c1N(C(C)=O)CC2	i	1.14	-1.0%
COc1ccc(-n2cnc3c(cnn3CCC#N)c2=N)cc1	i	1.04	7.3%

Next structures follow.
SMILES	MT1-MMP promoter	WNV NS2B-NS3 inh	Hsc70
CN1C=CC=C/C1=C(\C#N)c1nc2ccccc2[nH]1	i	-1.08	-3.3%
COCCN(C(=O)Cn1nnc2ccccc21)C(C(=O)NC1CCCC1)c1cccc(OC)c1OC (stereo not given)	i	-0.12	-5.4%
COc1ccc(-n2nc(C(=O)Nc3ccc4c(c3)OCO4)c3c4ccccc4n(C)c3c2=O)cc1	i	-0.32	-1.2%
C/C(NC(=O)c1ccccc1)=C1/C(=O)CC2C1C2(C)C (stereo not given)	i	-0.5	1.1%
O=C1c2ccccc2NC(c2ccc(F)cc2)N1Cc1ccco1 (stereo not given)	i	0.71	-8.6%
Cc1cc(NC(=O)CSc2nnc(-c3ccncc3)n2N)ccc1Br	i	0.55	18.9%
O=C(Nc1ccc(N2CCN(C(=O)c3ccc(Cl)cc3)CC2)cc1)c1ccc(Br)o1	i	-0.56	-4.4%
COc1cccc(NC(=O)CSc2nncn2N)c1	i	0.54	1.8%
CN1CCN(C(=O)c2cc3nc(-c4ccc(Cl)cc4)cc(C(F)(F)F)n3n2)CC1	i	1.33	-5.2%
O=C(COC(=O)c1ccco1)Nc1ccc2c(c1)OCCO2	i	0.26	-2.9%
N=c1c[n+](N2CCOCC2)[n-]o1	i	0.15	-0.9%
Cc1cc(NC(=O)CSc2nnc(Cc3ccccc3)n2C)no1	i	·	-5.2%
CCOC(=O)c1[nH]c(C)c(C(=O)OCC(=O)N2CCCCC2C)c1C (stereo not given)	i	0.64	10.7%
Cc1cccn2cc(CCNS(=O)(=O)c3ccc4c(c3)OCCO4)nc12	i	0.25	3.2%
Cc1c(C(=O)O)c(-c2ccccc2)nn1-c1ccccc1	i	-0.98	-5.1%
CCCC(=O)Nc1ccccc1-c1nnn(CC(=O)Nc2ccc(OC)cc2)n1	i	0.5	0.6%
CC(C)OC(=O)c1ccc(NC(=O)Cn2c(-c3nonc3N)nc3ccccc32)cc1	i	·	-0.6%
COc1cc(S(=O)(=O)N2CCCCC2)ccc1NC(C)=O	i	·	1.2%
CC1(C)C(=O)OC(c2c(F)c(F)c(F)c(F)c2F)C2(CCCCC2)C1=O (stereo not given)	i	1.5	-3.8%
O=C(O)CSc1nnc(Cn2nnc3ccccc32)n1CCc1ccccc1	i	-0.72	-2.7%
O=C(NCc1ccccc1)NC1(C(=O)N2CCOCC2)CCCCC1	i	0.24	-2.6%
Cc1noc(C)c1S(=O)(=O)Nc1ccc(C(=O)NC2CCCCCC2)cc1	i	0.00425	-3.0%
CCSc1nnc(NC(=O)C(C)(C(F)(F)F)C(F)(F)F)s1	i	0.46	0.6%
COc1ccc(S(=O)(=O)Nc2ccccc2C(=O)NCc2ccco2)cc1Br	i	-0.46	6.1%
COc1ccc(Cn2c(CCC(=O)N3CCN(c4ccccn4)CC3)nc3ncccc3c2=O)cc1	i	-0.68	1.2%

Shown with two lines to a compound: entries from further up.
Every second line gives: MT1-MMP promoter	WNV NS2B-NS3 inh	Hsc70
CN1C=CC=C/C1=C(\C#N)c1nc2ccccc2[nH]1
→ i	-1.08	-3.3%
COCCN(C(=O)Cn1nnc2ccccc21)C(C(=O)NC1CCCC1)c1cccc(OC)c1OC (stereo not given)
→ i	-0.12	-5.4%
COc1ccc(-n2nc(C(=O)Nc3ccc4c(c3)OCO4)c3c4ccccc4n(C)c3c2=O)cc1
→ i	-0.32	-1.2%
C/C(NC(=O)c1ccccc1)=C1/C(=O)CC2C1C2(C)C (stereo not given)
→ i	-0.5	1.1%
O=C1c2ccccc2NC(c2ccc(F)cc2)N1Cc1ccco1 (stereo not given)
→ i	0.71	-8.6%
Cc1cc(NC(=O)CSc2nnc(-c3ccncc3)n2N)ccc1Br
→ i	0.55	18.9%
O=C(Nc1ccc(N2CCN(C(=O)c3ccc(Cl)cc3)CC2)cc1)c1ccc(Br)o1
→ i	-0.56	-4.4%
COc1cccc(NC(=O)CSc2nncn2N)c1
→ i	0.54	1.8%
CN1CCN(C(=O)c2cc3nc(-c4ccc(Cl)cc4)cc(C(F)(F)F)n3n2)CC1
→ i	1.33	-5.2%
O=C(COC(=O)c1ccco1)Nc1ccc2c(c1)OCCO2
→ i	0.26	-2.9%
N=c1c[n+](N2CCOCC2)[n-]o1
→ i	0.15	-0.9%
Cc1cc(NC(=O)CSc2nnc(Cc3ccccc3)n2C)no1
→ i	·	-5.2%
CCOC(=O)c1[nH]c(C)c(C(=O)OCC(=O)N2CCCCC2C)c1C (stereo not given)
→ i	0.64	10.7%
Cc1cccn2cc(CCNS(=O)(=O)c3ccc4c(c3)OCCO4)nc12
→ i	0.25	3.2%
Cc1c(C(=O)O)c(-c2ccccc2)nn1-c1ccccc1
→ i	-0.98	-5.1%
CCCC(=O)Nc1ccccc1-c1nnn(CC(=O)Nc2ccc(OC)cc2)n1
→ i	0.5	0.6%
CC(C)OC(=O)c1ccc(NC(=O)Cn2c(-c3nonc3N)nc3ccccc32)cc1
→ i	·	-0.6%
COc1cc(S(=O)(=O)N2CCCCC2)ccc1NC(C)=O
→ i	·	1.2%
CC1(C)C(=O)OC(c2c(F)c(F)c(F)c(F)c2F)C2(CCCCC2)C1=O (stereo not given)
→ i	1.5	-3.8%
O=C(O)CSc1nnc(Cn2nnc3ccccc32)n1CCc1ccccc1
→ i	-0.72	-2.7%
O=C(NCc1ccccc1)NC1(C(=O)N2CCOCC2)CCCCC1
→ i	0.24	-2.6%
Cc1noc(C)c1S(=O)(=O)Nc1ccc(C(=O)NC2CCCCCC2)cc1
→ i	0.00425	-3.0%

Sorted by number of heavy atoms (lowest first): 3 of the compounds above
SMILES	MT1-MMP promoter	WNV NS2B-NS3 inh	Hsc70
O=C1c2ccccc2NC(c2ccc(F)cc2)N1Cc1ccco1 (stereo not given)	i	0.71	-8.6%
O=C(O)CSc1nnc(Cn2nnc3ccccc32)n1CCc1ccccc1	i	-0.72	-2.7%
CN1CCN(C(=O)c2cc3nc(-c4ccc(Cl)cc4)cc(C(F)(F)F)n3n2)CC1	i	1.33	-5.2%

The list continues:
SMILES	MT1-MMP promoter	WNV NS2B-NS3 inh	Hsc70
O=c1[nH]c2ccccc2c(=O)n1Cc1ccco1	i	1.13	5.8%
CC(C)CNc1cc(=O)n(C)c(=O)n1C	i	-1.08	4.1%
COc1cc(C(=O)Nc2cccc(-c3nc4ccccc4o3)c2C)cc(OC)c1OC	i	0.35	2.5%
CCCCNC(=O)OCC(CC)NC(=O)OC(C)C (stereo not given)	i	0.08	0.5%
Cc1cc(Cl)ccc1OCC(=O)Nc1ccccc1N1CCOCC1	i	0.54	-2.5%
O=C(NC1CCCCC1)c1ccccc1NC(=O)C1CC(=O)N(c2ccc(Cl)cc2)C1 (stereo not given)	i	·	-0.4%
COc1cc(NC(=O)C2CCCN2C(=O)C2CCC(C)CC2)cc(OC)c1OC (stereo not given)	i	-0.21	-2.9%
O=C(c1ccccc1)c1ccc2nc[nH]c2c1	i	-0.66	-4.8%
O=C1c2cccnc2C(O)N1C1CCCCC1 (stereo not given)	i	0.23	-7.7%
COc1ccc(OC)c(N(CC(=O)Nc2ccc3c(c2)OCCO3)S(C)(=O)=O)c1	i	-1.07	3.3%
Cc1cc(C)c(C)c(OCCOCCN2CCOCC2)c1	i	1.67	-2.9%
CC1CC(C)CN(CC(=O)N2c3ccccc3CCc3ccccc32)C1 (stereo not given)	i	·	-3.1%
Cc1ccc2c(c1)C(C)(C)[C@]1(C)NC(=O)CCN21	i	-1.44	-1.6%
CS(=O)(=O)Nc1ccc(S(=O)(=O)Nc2nccs2)cc1	i	-0.43	-1.8%
O=C(NC(Cc1ccccc1)c1nc2ccccc2[nH]1)C1CC(=O)N(c2ccc3c(c2)OCCO3)C1 (stereo not given)	i	-1.5	-10.1%
COc1ccc(Cl)c(NCCC(=O)O)c1	i	0.23	-5.2%
O=C(CNCCO)N1CCc2ccccc21	i	·	4.4%
Cc1cccc(NC(=O)COc2ccc(Br)cc2)n1	i	-1.16	-4.3%
CCOc1ccccc1C(=O)Nn1c(C2CCC2)nc2ccccc2c1=O	i	-0.29	-9.0%
Cc1ccccc1C(=O)Nc1ccccc1	i	1.17	-4.8%
CC1(C)Cc2ccccc2C(N)=C1C#N	i	1.44	-6.1%
CCCCCOc1ccc(Br)cc1/C(C)=N/NC1=NCCN1	+	·	1.3%
COc1cc(CN2CCN(c3cccc(C)c3C)CC2)cc(OC)c1O	i	-0.62	0.2%
COc1ccc(OCCCN2CCCC(C)C2)cc1 (stereo not given)	i	1.06	-5.3%
COc1cccc(CN2CCN(C(=O)CC(C)C)CC2)c1	i	1.45	3.1%

Further records:
SMILES	MT1-MMP promoter	WNV NS2B-NS3 inh	Hsc70
O=C(O)c1ccc(Br)c(S(=O)(=O)N2CCCC2)c1	i	-0.52	4.3%
CCOc1cc(C2C(C(=O)N3CCCCC3)=C(C)NC3=C2C(=O)CC(C)(C)C3)ccc1O (stereo not given)	i	0.73	-1.6%
CCOCCCNC(=O)CCS(=O)(=O)Cc1ccc(C)cc1	i	-1.57	1.1%
CCCC(=O)c1ccc(N2CCN(S(=O)(=O)c3ccc(C)cc3)CC2)c(F)c1	i	1.06	6.0%
COc1ccc2nc3oc(C(=O)NC4CCN(Cc5ccccc5)CC4)cc3cc2c1	i	0.13	0.1%
Cc1cc(C)nc(-n2nc(C)cc2NC(=O)CNCc2ccccc2)n1	i	·	-1.3%
CCC1(C)N([O-])C(C)=C(c2ccccc2)[N+]1=O (stereo not given)	i	·	-1.3%
O=C(CCCn1c(=S)[nH]c2ccccc2c1=O)N1CCOCC1	i	0.18	-2.3%
CCOC(=O)C(=O)c1csc(NC(=O)COc2ccc(N(C)S(=O)(=O)c3ccc(F)cc3)cc2)n1	i	·	3.1%
Cc1cc(NC(=O)CSc2ccc(Cl)cc2)no1	i	1.37	-3.3%
CCN(CC)C(=O)C1CCCN(C(=O)Nc2ccc3nsnc3c2)C1 (stereo not given)	i	·	2.3%
CCOC(=O)c1cc(=O)cc(C(=O)OCC)o1	i	1.51	-1.2%
Cc1cccc(NC(=O)c2cnc3sccn3c2=O)c1	i	0.87	0.4%
CCc1nnc(NC(=O)CSc2nnc(Cc3ccccc3)n2-c2ccc(OC)cc2)s1	i	0.2	1.7%
COc1cc2c3c(c1)C1(C(=O)N3C(C)(C)C=C2C)C(C#N)=C(N)Oc2cc(O)ccc21 (stereo not given)	i	-0.24	-5.1%
CCc1ccccc1-n1c(SCC(=O)N2CCCC2)nnc1-c1ccccn1	i	-1.01	3.9%
COc1ccc2[nH]c(C(=O)O)c(CCNC(C)=O)c2c1	i	-4.12*	1.8%
COC(=O)c1ccc(CSc2nccn2C)cc1	i	-1.76	-12.2%

Screens (PubChem)
